# Sfp PPTase inh: inhibitors of Bacillus subtilis Sfp phosphopantetheinyl transferase; AID 1490; 3.5% of 310,000 active; Biochemical Sfp PPTase activity, qHTS; Potency, µM, for inactives: max response, negative = inhibition, hits mostly inhibitors; active means well fitted inhibition curve with a large enough effect; inconclusive means small, poorly fitted or top-dose-only effect, or another doubt; inactive means no such curve, though single readings can be large or run the other way;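 further: the enzyme is Sfp with the accession as filed and its product quenches rhodamine fluorescence; potency means the concentration at half of the fitted maximal effect; 0% = enzyme reaction without inhibitor and -100% = no enzyme wells; top concentration of the series not given in the record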
#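 Fluorescence-quenching assay: 15 nM Sfp-PPTase preincubated 15 min at room temperature with compound, then 5 uM rhodamine-CoA and 12.5 uM BHQ-2-labelled YbbR peptide added. Fluorescence (ex 525/em 598 nm) read at start and after 30 min; difference gives rate.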
# Menin MLL FP FL: displaces fluorescein MLL peptide from human menin | FP activity change, % at 61.4 µM | 290,000 tested, under 10 active | Fluorescence polarization, fluorescein-MLL peptide displacement from menin; inconclusive = falling polarisation curve, or a change in total fluorescence; inactive = total fluorescence flat and polarisation flat or rising; no compound was filed as active; the % refers to the polarisation; negative = inhibition;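 further: % of control where 0% means no effect; inhibitors lower the polarisation; unlabelled MLL peptide was the positive control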
# ClpP mod: qHTS Assay for Activators of ClpP; 1.9% of 340,000 active; Potency, µM (titrated, usually from 57.5 µM), for the others: at the highest dose activity change, negative = active; purified B. subtilis ClpP, FRET peptide cleavage, 20 min; active = well fitted falling curve with a large enough effect; inconclusive = small, poorly fitted or top-dose-only effect; inactive = no such curve, though single readings can be large or run the other way; further: potency means the concentration at half of the fitted maximal effect; the source files actives as falling curves though it sought activators and does not explain the sign; nearly all actives have a fitted effect of over 65% in size; many hits overshoot -100%
# Target sequence (P80244 whole entry, looked up): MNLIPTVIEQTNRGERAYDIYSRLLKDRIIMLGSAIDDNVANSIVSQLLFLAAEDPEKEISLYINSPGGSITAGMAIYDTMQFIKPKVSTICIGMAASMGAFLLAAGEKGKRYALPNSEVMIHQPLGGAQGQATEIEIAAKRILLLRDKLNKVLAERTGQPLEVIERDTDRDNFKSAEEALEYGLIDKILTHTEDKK
#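 FRET quenching reversal measured ClpP activation: 10 microg/mL B. subtilis ClpP at pH 8 with the FRET-FV decapeptide, read at 430 nm after 320 nm excitation. The 20-min minus 0-min signal was scaled between DMSO/no-enzyme wells and ADEP (5.8 microM final).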
# PINK1 expr mod: modulators of PINK1 expression. Potency, µM (top dose mostly 76.6 µM), without a hit: at the top dose activation (PINK1 increase), actives largely listed as activators. AID 624263. PINK1 immunofluorescence, high-content cytometry, 24 h. 0.2% of 410,000 active; active = well fitted activation curve with a large enough effect; inconclusive = small, poorly fitted or top-dose-only effect; inactive = flat fitted curve, though single readings scatter; cell line not stated here;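 further: potency means the concentration at half of the fitted maximal effect; % of control where 0% means no effect; nearly all actives have a fitted effect of over 65% in size; a mitochondrial uncoupler was the plate control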
#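 A stable cell line was treated with compounds at 5 concentrations for 24 hours, with CCCP as control. PINK1 levels and mitochondrial localization were measured by immunofluorescence with mitochondrial, cell and nuclear markers after fixation, read by laser-scanning cytometry.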
# D2 ag: agonists of human D2 dopamine receptor (beta-arrestin) | DiscoveRx PathHunter D2 beta-arrestin, luminescence, 90 min; 100% = 57 uM dopamine signal | AID 624465 | activation, % (no concentration beside the values) | 0.084% of 360,000 active; in the data active = activation above about 40%; inconclusive = about 15% to 40%; inactive = below about 15%; further: compound concentration not given in the record; the text of the record calls up to 30% inactive
# Target sequence (P14416 whole entry, looked up): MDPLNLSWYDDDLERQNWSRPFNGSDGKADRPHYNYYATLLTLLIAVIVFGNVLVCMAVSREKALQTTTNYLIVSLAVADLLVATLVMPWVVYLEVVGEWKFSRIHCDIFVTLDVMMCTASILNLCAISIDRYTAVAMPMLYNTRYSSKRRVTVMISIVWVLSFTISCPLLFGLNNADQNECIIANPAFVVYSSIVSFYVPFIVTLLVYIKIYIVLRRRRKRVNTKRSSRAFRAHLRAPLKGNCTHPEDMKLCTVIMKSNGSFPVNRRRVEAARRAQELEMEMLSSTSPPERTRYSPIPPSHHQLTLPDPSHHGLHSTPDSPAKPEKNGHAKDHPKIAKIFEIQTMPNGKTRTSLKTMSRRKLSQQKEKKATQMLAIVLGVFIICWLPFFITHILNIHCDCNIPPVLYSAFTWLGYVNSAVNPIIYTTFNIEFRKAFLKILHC
#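 Agonist mode: compounds alone added to overnight-plated D2 PathHunter cells for 90 min at 37 C, with 57 uM final dopamine (EC100) defining full response. Beta-arrestin recruitment detected by chemiluminescent reagent, read after 1 h at ambient temperature.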
# gsp antagonist: gsp mutant antagonism; gsp-mutant cells, cAMP HTRF, 30 min; control for the full effect not named in the record; Potency, µM (doses to about 76.9 µM), for the others: at the highest dose activity change, negative = inhibition, usual class: inhibitors; 0.4% of 340,000 active; AID 624288; active = falling curve of any shape with a large fitted effect; inconclusive = falling curve, mostly with a smaller effect; inactive = flat or rising curve; cell line not stated here;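 further: intracellular cAMP measured with PDE inhibitor Ro 20-1724 present during compound exposure; potency means the concentration at half of the fitted maximal effect; on the % scale 0 is the no-effect control and ±100 the full control effect; nearly all actives have a fitted effect of over 65% in size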
#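 G418-selected cells were plated in DMEM/10% FBS for 16-24 h at 37C, then treated with compounds plus the PDE inhibitor […] (300 uM solution added) for 30 min at 37C. Intracellular cAMP was measured by HTRF after 30 min lysis at room temperature.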
# gsp ag: gsp mutant agonism; 0.13% of 340,000 active; Potency, µM (highest dose often 76.9 µM), for inactives: top-dose activation (cAMP increase), most hits filed as activators; gsp mutant cells, cAMP HTRF, 30 min; control for the full effect not named in the record; AID 624287; active = well fitted activation curve with a large enough effect; inconclusive = small, poorly fitted or top-dose-only effect, or another doubt; inactive = no such curve, though single readings can be large or run the other way; cell line not stated here;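 further: phosphodiesterase inhibitor Ro 20-1724 added with compounds to block cAMP breakdown; potency means the concentration at half of the fitted maximal effect; nearly all actives have a fitted effect of over 60% in size; about a fifth of the inactives were tested at one dose only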
#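 Cells stably selected in G418 were plated at 2000/well, grown 16-24 hr, then given compounds in DMSO with the PDE inhibitor […] (300 uM solution added) for 30 min at 37C; cAMP was read by HTRF.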
# The depositor's hits bear a star; u = inconclusive; x = no result given; & = joins results of further samples; [ ] = another dose, or the depositor's remark.
# The line under a structure holds: Sfp PPTase inh	Menin MLL FP FL	ClpP mod	PINK1 expr mod	D2 ag	gsp antagonist	gsp ag
COc1ccc(CNC(=O)CCc2ccc(S(=O)(=O)N3CCCCCC3)cc2)cc1OC
→ x	x	-3.1%	-0.6%	2.6	-27%	u
CCOC(=O)c1cc(C)n(S(=O)(=O)c2ccc(C)cc2)c1C
→ -10%	3.8	-2.4%	1.3%	0.6	-14%	-20%
CC(C(=O)c1ccc(-c2ccccc2)cc1)[n+]1cccc(NC(=O)c2ccccc2)c1 (stereo unspecified)
→ u	2.4	x	-2.0%	-0.3	5%	26%
CCOC(=O)C(CSCC(=O)c1ccc(Cl)cc1)NC(=O)OC(C)(C)C (stereo unspecified)
→ 1%	1.4	1.3%	1.1%	-1.7	-22%	3%
COc1ccccc1CNS(=O)(=O)c1c(C)[nH]c(C)c1C(=O)N1CCCC1
→ 21%	2.7	2.0%	0.9%	-0.3	11%	-1%
Cc1cccnc1NC(=O)C1CCN(S(=O)(=O)c2cccs2)CC1
→ -2%	-0.5	-0.3%	1.0%	-1.1	3%	-32%[inhibitor]
N/C(=N\OC(=O)c1ccc(Cl)cc1)c1ccc(Cl)cc1
→ 17%	-0.8	-0.6%	13%	u	5%	-4%
COc1ccc(CN2CCN(Cc3ccc(C(F)(F)F)cc3)CC2)c(OC)c1
→ 71µM*	-12	-0.6%	u	-2.0	0%	-16%
COc1ccccc1N1CCN(C(=O)CSc2nc3ccccc3nc2N2CCC(C)CC2)CC1
→ -12%	2.7	x	-0.3%	-2.8	-22%	27%
Cc1ccc(OC(C)C(=O)N(C)Cc2ccccc2)c([N+](=O)[O-])n1 (stereo unspecified)
→ -1%	x	93%	0.2%	1.7	5%	1%
Cc1cc(/C=c2\sc3nc4ccccc4n3c2=O)c(C)n1-c1ccc(C(=O)O)cc1
→ -18%	u	x	0.4%	-1.5	u	0%[15.4 µM]
O=C(COc1ccc(C(=S)N2CCOCC2)cc1Cl)Nc1ccccc1Cl
→ 20µM*	-0.5	x	4.1%	-3.4	x	5%[15.4 µM]
O=C(COC(=O)Cn1nnc2ccccc21)NC1CCCC1
→ 5%	0.0	-3.1%	-0.8%	1.1	9%	7%[15.4 µM]
COC(=O)Cn1nnc(N2CCOCC2)n1
→ 18%	2.7	x	0.6%	-2.1	-5%	15%[15.4 µM]
C(=N\Nc1ccc2nncn2n1)/c1ccccn1
→ 32µM*	0.0	x	-1.8%	-0.2	8%	0%[15.4 µM]
S=C(NCC1COc2ccccc2O1)Nc1ccc(Br)cc1 (stereo unspecified)
→ 10%	6.7	-1.6%	u	0.8	-25%	-15%
Nc1nc(SCC(=O)N2CCOCC2)[nH]c(=O)c1-c1ccccc1
→ 21%	-0.5	x	0.3%	-6.2	9%	14%[15.4 µM]
COc1cc(SC)ccc1C(=O)NNC(=O)c1cc(C)oc1C
→ x	x	0.2%	-1.3%	-2.1	-4%	23%[15.4 µM]
CCN(C(=O)CSc1ncccc1C(=O)O)C1CCCCC1
→ 0%	-1.6	-1.0%	-1.3%	3.3	10%	-8%
CCOCCCNC(=O)C(NC(=O)Cc1c[nH]c2ccccc12)c1ccccc1 (stereo unspecified)
→ 22%	-3.4	x	0.5%	-6.3	16%	-2%[15.4 µM]
CN(CCc1nc2ccc(Cl)cc2[nH]1)Cc1nc(CC2CC2)no1
→ 1%	4.2	-2.6%	-0.9%	-0.4	4%	48%
COc1cc(OC)c(S(=O)(=O)N2CCCCC2)cc1S(=O)(=O)N1CCCCC1
→ 10%	3.7	0.6%	-1.5%	0.3	8%	7%
COc1cc(CCN2C(=O)N[C@@H](CCc3ccccc3)C(C(C)=O)=C2C)cc(OC)c1OC
→ -2%&5%	0.4&0.3	1.7%	1.3%	-2.9	-5%	-3%
Cc1nnc(NC(=O)Nc2ccc(Cl)c(Cl)c2)s1
→ 0%	6.5	2.3%	u	-0.4	u	-9%
O=C(OCc1cnc(Cl)s1)c1ccc(Cl)cc1
→ 11%	2.8	1.6%	2.7%	-0.1	-5%	-39%
COc1ccc(NC(=O)N2c3ccccc3CC2C)cc1OC (stereo unspecified)
→ 14%	2.6	0.9%	x	1.5	8%	0%
Cc1cnc(C(=O)OCC(=O)c2ccc(Cl)cc2)cn1
→ 19%	0.0	-1.6%	-0.3%	-6.1	2%	11%
Cc1cccc(C)c1NC(=S)N(Cc1cccs1)C1CCCC1
→ -5%	-3.9	-0.8%	-0.4%	1.1	12%	4%[15.4 µM]
CSc1cccc(NC(=O)NCc2cccc(CNC(=O)Nc3cccc(SC)c3)c2)c1
→ 0%	0.6	1.5%	5.4%	1.3	-4%	16%
O=C(Nc1cc(S(=O)(=O)N2CCCCC2)ccc1Cl)C1COc2ccccc2O1 (stereo unspecified)
→ x	x	-2.8%	2.6%	-3.6	-11%	-5%

# Remaining list, next part:
# The line under a structure holds: Sfp PPTase inh	Menin MLL FP FL	ClpP mod	PINK1 expr mod	D2 ag	gsp antagonist	gsp ag
Cc1nc(SCC(=O)Nc2c(C)n(C)n(-c3ccccc3)c2=O)c(C#N)c(C)c1C
→ x	x	-1.6%	1.7%	3.8	5%	8%
COC(=O)C[C@@H]1C[C@H]2c3cc(NC(=O)CC4CC4)ccc3O[C@H]2[C@@H](CO)O1
→ x	x	0.8%	6.0%	0.3	x	-28%
Cc1oc(-c2ccccc2F)nc1CN1CCC(C(=O)NCc2ccco2)CC1
→ 7%	-1.1	-0.4%	0.3%	0.3	4%	10%
Cc1ccc(S(=O)(=O)N2CCN(CC(=O)N/N=C\c3ccncc3)CC2)cc1
→ 16%	2.0	-4.0%	-0.7%	-0.3	17%	14%
COc1ccc(CN2C(=NC(=O)CCc3ccccc3)SC3CS(=O)(=O)CC32)cc1 (stereo unspecified)
→ -6%	x	0.3%	-0.7%	-0.2	1%	u
S=c1[nH]nc(-c2ccncc2)n1/N=C/c1ccccc1
→ -7%	3.8	-20%	-0.2%	-0.9	-19%	u
CCOC(=O)C1CCN(C(=O)c2ccccc2Oc2ccccc2)CC1
→ 13%	0.6	-3.6%	0.6%	0.3	-7%	-17%
Cc1ccc(S(=O)(=O)N2C[C@@H](C)[C@]3(C2)[C@H](O)[C@H](OC(=O)NCc2ccccc2F)C[C@H]2C(=O)N(c4ccccc4)C(=O)[C@H]23)cc1
→ x	x	0.0%	2.3%	2.3	x	9%
C[C@@H]1CN([C@@H](C)CO)C(=O)c2cc(Br)cnc2O[C@H]1CN(C)C(=O)Nc1ccccc1
→ x	x	-2.7%	0.6%	-8.2	x	u
Cc1cc(CN(C)C(=O)CCc2nnc(Cc3cccc(C(F)(F)F)c3)o2)on1
→ 22%	0.5	x	-0.1%	0.1	7%	u
Cc1oc2cc(OCc3cnn(-c4ccccc4)c3)ccc2c(=O)c1Oc1ccccc1F
→ u	6.7	-0.8%	-0.6%	-0.5	6%	-2%
CN1C(=O)C(C(=O)NC(C)(C)C)C2c3ccccc3OC13CCCCC23 (stereo unspecified)
→ 9%	3.1	0.3%	-2.0%	-1.6	4%	-19%
Cc1ccc(C(=O)C=CC=Cc2ccccc2)cc1
→ x	x	-1.1%	2.5%	-1.0	x	-27%
O=C(NCc1ccc(F)cc1)c1cccc(S(=O)(=O)N2CCOCC2)c1
→ x	x	2.7%	0.3%	-1.1	9%	11%
CCOC(=O)c1sc(=S)n(-c2ccccc2)c1C
→ 5%	1.1	x	0.3%	-7.6	-10%	22%
CCOCCCN(C(=O)c1snc(C(N)=O)c1N)C(C(=O)NC1CCCC1)c1ccc(F)cc1 (stereo unspecified)
→ 13%	-1.8	x	2.3%	-3.6	-22%	-9%
CN(C)CCCOC(=O)c1cc2ccccc2o1
→ 17%	2.7	-15%	-1.0%	-2.3	2%	-58%[inhibitor]
CCOc1ccccc1NC(=O)C1C2CCC3C(CCC21)C3(Cl)Cl (stereo unspecified)
→ 3%	-0.1	-3.0%	0.7%	-1.4	-22%	0%
COCCn1c(=S)[nH]c2ncccc2c1=O
→ -21%	4.2	1.6%	0.8%	-0.9	-6%	3%
CCCCc1nnc(NC(=O)CSc2nc(O)c(-c3ccccc3)c(=O)[nH]2)s1
→ u	-0.3	x	-0.4%	0.6	0%	-4%
COc1ccccc1CNC(=O)C1CCCCN1S(=O)(=O)c1ccccc1 (stereo unspecified)
→ 7%	3.2	x	0.0%	3.8	2%	3%
CCCc1cc(=O)[nH]c(SCc2nc3ccccc3s2)n1
→ 4%	1.4	0.8%	9.2%[38.3 µM]	0.9	u	-60%[inhibitor]
O=C(NC1CCCCCC1)c1ccc(=O)n(Cc2ccccc2)n1
→ 10%	1.4	0.3%	-1.3%	11	-12%	-15%
COC(=O)c1ccc(Cn2nnc3c(=O)[nH]c(C4CCCN(S(=O)(=O)c5ccc(C)cc5)C4)nc32)cc1 (stereo unspecified)
→ -20%	-0.7	-0.8%	5.9%	-2.1	-2%	u
Cc1onc(-c2c(F)cccc2Cl)c1C(=O)N1CCCC1
→ x	x	0.7%	0.3%	-4.4	-8%	4%[15.4 µM]
COc1ccc(N(C(=O)c2cccnc2)S(=O)(=O)c2cc(OC)ccc2OC)cc1
→ 19%	x	1.4%	4.9%	-4.2	1%	3%
CCCCn1nnc(NC(=O)c2ccc(-c3ccccc3)cc2)n1
→ -4%	-1.2	-4.4%	9.8%	-3.7	6%	-2%
O=C1c2c([N+](=O)[O-])cc([N+](=O)[O-])cc2S(=O)N1Cc1ccccc1 (stereo unspecified)
→ 50µM*	4.8	x	5.8%	8.4	-12%	-18%

# A different layout for some results above:
mol,Sfp PPTase inh,Menin MLL FP FL,ClpP mod,PINK1 expr mod,D2 ag,gsp antagonist,gsp ag
Cc1cnc(C(=O)OCC(=O)c2ccc(Cl)cc2)cn1,19%,0.0,-1.6%,-0.3%,-6.1,2%,11%
CCCCc1nnc(NC(=O)CSc2nc(O)c(-c3ccccc3)c(=O)[nH]2)s1,u,-0.3,x,-0.4%,0.6,0%,-4%
